Sa growth 42C: S. aureus growth inhibition at 42 and 30 °C, primary screen, LtaS inhibitor project, RN4220, two temperatures | OD600, 20 h, 42 °C; hits give low values | relative growth, % (test concentration not listed) | 170,000 compounds, 0.53% hits;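 active means growth at 42 °C up to 50% and 20 or more points under that at 30 °C, or under 10% at both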;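 further: 300 nL library stock went into each well; scaled to the means of positive and negative controls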
GIV-Gai inh: inhibitors of GIV peptide binding to Galpha-i3, primary screen, biochemical, fluorescence polarization, FITC-GIV GBA peptide, rat Galphai3. 90 min; hits give low values; scaled: aluminum fluoride 0%, vehicle 100%. percent of control (FP), % (concentration not given with the values). 210,000 compounds, 0.42% hits. AID 1224905, 2016;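 active means replicate mean at 85% of control or lower, very high polarization wells dropped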;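 further: wells of about 15 µL received 100 nL stock; the first replicate is given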
Target sequence (P08753 whole entry, looked up): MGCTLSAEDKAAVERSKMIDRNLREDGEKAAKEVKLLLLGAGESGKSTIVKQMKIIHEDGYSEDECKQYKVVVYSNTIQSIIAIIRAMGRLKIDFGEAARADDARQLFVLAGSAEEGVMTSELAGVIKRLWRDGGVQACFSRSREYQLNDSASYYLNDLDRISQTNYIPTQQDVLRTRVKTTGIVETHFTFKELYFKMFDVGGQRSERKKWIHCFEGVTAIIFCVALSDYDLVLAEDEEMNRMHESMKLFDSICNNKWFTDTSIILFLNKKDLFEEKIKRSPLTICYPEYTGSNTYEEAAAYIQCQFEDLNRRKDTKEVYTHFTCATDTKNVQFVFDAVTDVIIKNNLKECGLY
HCMV NEC inh: inhibitors of HCMV UL50-UL53 interaction, biochemical, HTRF; inhibition, % (test concentration not listed); HCMV UL50-UL53 nuclear egress complex (human cytomegalovirus); normalized percent inhibition; 190,000 compounds, 0.15% hits;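 active means both replicates at 50% or more, plus weaker picks with an unusually low signal ratio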;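 further: stock transfer was 100 nL into about 20 µL; 0% = negative control wells and 100% = wells with untagged competitor protein; inactives centre near -12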
Sa growth 42C second temp: further read-out of Sa growth 42C, marked with its call; relative growth, %; measured here: growth at 30 °C;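 optical density after 20 h as mean of two plates; 100% = untreated growth and lower means inhibition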
The depositor's hits bear a star; · = not tested or not shown; & = joins results of further samples.

SMILES	Sa growth 42C	Sa growth 42C second temp	GIV-Gai inh	HCMV NEC inh
CC(C)(C)/C(O)=C(/C#N)c1nc2ccccc2[nH]1	120.1	36.1	110.9	·
CC(C(=O)O)N1C(=O)c2cccnc2Sc2ccccc21 (stereo not drawn)	91.3	85.8	103.1	-19.2
COc1cccc(C2=NC(=C(C)C)C(=O)O2)c1	100.8	90.4	111.5	·
CC1CC(N(C(=O)c2cccc(Br)c2)c2ccccc2)c2ccccc2N1C(=O)c1cccc(Br)c1 (stereo not drawn)	·	·	96.7	-10.7
CCn1c2ccccc2c2cc(NC(=O)COc3ccc(OC)cc3)ccc21	105.1	85.3	102.2	·
c1ccc2[nH]c(NCCCN3CCOCC3)nc2c1	95.5	97.2	102.2	5.8
C=CCN1C(=O)S/C(=C/c2cn(CC(=O)O)c3ccccc23)C1=O	105.4	100.9	105.0	-72.0
COc1cc2c(cc1OC)C(C)N(C(=O)CN1CCOCC1)CC2 (stereo not drawn)	103.0	80.7	105.1	-5.4
CCSc1nc2c(c(=O)n1-c1ccc(OC)cc1)C1(CCCC1)Cc1ccccc1-2	·	·	107.7	-3.4
Cc1ccc(CN2CCC(CNC(=O)c3cc4ccc5cccnc5c4[nH]3)CC2)cc1	102.5	31.2	102.2	·
Cc1c(S(=O)(=O)NCc2cccn2Cc2ccccc2)cnn1C(F)F	·	·	107.3	-21.1
COC(=O)C1=C(N)OC2=C(C(=O)CC(C)(C)C2)C1c1ccc(C)cc1 (stereo not drawn)	104.1	79.2	107.4	-22.0
Cc1cc(C(=O)CC#N)c(C)n1-c1ccccc1F	106.2	77.3	·	-17.0
Cc1nc(-c2ccc(C(=O)N3CCN(C(c4ccccc4)c4ccccc4)CC3)cc2)no1	·	·	106.9	-3.4
Cc1ccccc1NCCC(=O)Nc1ccc(Cl)cc1	88.3	87.1	·	-25.1
COc1ccc(Cc2nc3ccccc3[nH]c2=O)cc1	90.2	91.3	101.7	-23.0
CCCCN(CC)Cc1ccc(CNS(=O)(=O)c2cc3c(cc2Cl)NC(=O)CO3)o1	89.0	93.6	98.7	·
O=c1cc(CSc2nnc(-c3cccnc3)n2-c2ccccc2F)nc2sccn12	102.2	94.3	·	-8.2
Cc1oc(-c2ccc(Cl)cc2)cc1C(=O)/C(C#N)=C/Nc1ccccc1	104.7	92.5	107.0	-6.4
O=C(Nc1ccc(OC(F)(F)F)cc1)Nc1cc(C(F)(F)F)ccn1	94.5	94.8	104.1	-32.3
Cc1ccc(NC(=O)COc2cccc3ccc(N4CCCC4)nc23)cc1Cl	·	·	104.0	-19.1
O=C(NCC1COc2ccccc2O1)c1ccc2c(Cl)c3c(nc2c1)CCCC3 (stereo not drawn)	103.4	94.9	104.2&98.7	-41.1
COC(=O)Cn1c(O)c(N=NC(=O)c2ccc3c(c2)OCO3)c2ccccc21	106.6	75.0	101.5	-56.6
Cc1cc(C)c(NC(=O)CCS(=O)(=O)c2cc3c(cc2Cl)NC(=O)CO3)c(C)c1	112.9	99.7	107.7	·
Cc1nn(CCC(=O)Nc2cc(F)ccc2F)c(=O)c2nn(-c3ccccc3)c(C)c12	101.6	92.3	100.0	·

In the list so far, 4 contain an NH in an aromatic ring.
SMILES	Sa growth 42C	Sa growth 42C second temp	GIV-Gai inh	HCMV NEC inh
CC(C)(C)/C(O)=C(/C#N)c1nc2ccccc2[nH]1	120.1	36.1	110.9	·
c1ccc2[nH]c(NCCCN3CCOCC3)nc2c1	95.5	97.2	102.2	5.8
Cc1ccc(CN2CCC(CNC(=O)c3cc4ccc5cccnc5c4[nH]3)CC2)cc1	102.5	31.2	102.2	·
COc1ccc(Cc2nc3ccccc3[nH]c2=O)cc1	90.2	91.3	101.7	-23.0

One compound at a time, as listed above.
Cc1nn(CCC(=O)Nc2cc(F)ccc2F)c(=O)c2nn(-c3ccccc3)c(C)c12 is listed with Sa growth 42C: 101.6; Sa growth 42C second temp: 92.3; GIV-Gai inh: 100.0; HCMV NEC inh: ·
Cc1cc(C)c(NC(=O)CCS(=O)(=O)c2cc3c(cc2Cl)NC(=O)CO3)c(C)c1 is listed with Sa growth 42C: 112.9; Sa growth 42C second temp: 99.7; GIV-Gai inh: 107.7; HCMV NEC inh: ·

(continued)
SMILES	Sa growth 42C	Sa growth 42C second temp	GIV-Gai inh	HCMV NEC inh
CCn1c(=N)c(C(=O)NCC2CCCO2)cc2c(=O)n3cc(C)ccc3nc21 (stereo not drawn)	110.1	94.7	107.0	-108.2
COc1ccccc1-c1nnc(SC)n1CCc1ccccc1	75.2	89.6	·	-8.6
O=C1NCCCC1c1n[nH]c(=S)n1-c1ccccc1Cl (stereo not drawn)	89.0	97.2	107.2	4.9
CN(C)C(=O)/N=N/C(=O)N(C)C	·	·	107.4	-24.9
Cc1nc2ccc(O)cc2o1	117.6	100.5	100.8	17.1
Cc1cccc(C)c1NC(=O)Nc1cc2sccc2n1C	102.3	90.5	119.5&103.2	-0.5&-28.3
O=C(Nc1cccc2[nH]ccc12)c1cccc(C(F)(F)F)c1	82.2	89.7	96.8	29.2
NC(=O)Cc1cn2ccccc2n1	99.4	97.6	·	2.4
COc1ccc(NC2CC(=O)N(C(C)C)C2=O)cc1 (stereo not drawn)	84.2	74.1	104.9	-17.6
CN(C)n1cccc1/C=C(\C#N)S(=O)(=O)c1ccc(Cl)cc1	92.2	82.5	96.3	-9.8
Cc1cc(C)cc(NC(=O)Cn2c(=O)n(Cc3ccc4c(c3)OCO4)c(=O)c3oc4ccccc4c32)c1	101.9	84.8	99.2	·
CCCNC(=O)c1cccc(COCC(F)(F)C(F)F)c1	109.4	92.9	101.0	-4.6
CSc1nc2sc3c(c2c(=O)n1CC(C)C)CCC3	108.1	88.3	101.9	·
CC1=C(C(=O)OC2CCCC2)C(c2ccccc2C(F)(F)F)CC(=O)N1 (stereo not drawn)	97.1	86.9	104.4	-6.3
S=C(NCCCN1CCOCC1)N1CCOCC1	91.7	92.5	100.8	-23.4
S=c1[nH]nc(NC2CC2)s1	50.4	55.5	·	13.3
N/C(CC(=O)Nc1cc(C(F)(F)F)ccc1Cl)=N\O	95.8	96.7	108.3	-9.2
Oc1ccccc1C1=NCCNC(C(F)(F)C(F)F)=C1	102.9	103.2	104.8	-12.3
N#Cc1cccc(NC(=O)C2CCN(c3cnccn3)CC2)c1	71.7	93.1	104.1	7.1
CC(C)c1cc(NCc2ccccn2)n2ncc(-c3ccccc3)c2n1	·	·	109.8	-29.0
COc1cccc(-c2ccc3c(N)c(C(=O)Nc4ccc(Cl)cc4F)sc3n2)c1	103.3	92.9	111.3	-6.8
Cc1ccc2c(=O)c(C(=O)c3ccc(F)cc3)cn(CC(=O)NC3CCCCC3)c2n1	92.8	95.8	103.3	·
COc1ccc(NC(=O)NCCc2nc3cccnc3n2C2CCCCC2)c(OC)c1	·	·	112.0	-16.5
Cc1occc1C(=O)Nc1ccc(OCc2ccccc2)cc1	109.4	92.4	·	-2.5
O=C1CCCC2=C1C(c1ccccc1)N(C(=O)c1ccccc1)c1ccccc1N2 (stereo not drawn)	·	·	103.2	14.3

The listing continues.
SMILES	Sa growth 42C	Sa growth 42C second temp	GIV-Gai inh	HCMV NEC inh
Cc1nc(C)c(Oc2ccc(Cl)cc2Cl)c(=O)[nH]1	90.3	86.5	97.1	-31.6
O=C1Nc2ccccc2N(c2ccccc2)N1	96.4	92.4	122.1	-31.5
COc1ccc(OC)c(NC(=O)CSc2nccn2-c2cc(C)cc(C)c2)c1	99.3	92.5	100.4	·
CN1CCN(S(=O)(=O)c2cccc3nsnc23)CC1	102.0	89.5	98.2	-101.5
COC(=O)c1ccccc1NC(=O)c1nnn(-c2ccc3noc(-c4ccccc4)c3c2)c1C	·	·	99.4	5.9
Cc1oc(-c2ccc(Cl)cc2)cc1C(=O)N1CCC(O)(c2ccc(Cl)cc2)CC1	130.4	91.7	108.1	7.6
Cc1ccc(NS(=O)(=O)c2ccc3c(c2)CCCN3C(=O)C2CCC2)c(C)c1	91.0	79.0	106.4	·
c1nc(N2CCC(N3CCCCC3)CC2)c2nc3n(c2n1)CCCCC3	·	·	111.3	-7.8
CCN(C(=O)Cc1noc2ccccc12)c1cc(C)ccc1C	98.9	84.4	95.8	·
CCOC(=O)N1CCN(C(=O)c2cc3c(=O)n(CC)c4ccccc4c3s2)CC1	86.2	59.3	109.4	-35.3
O=C(OCc1cn2cc(Cl)ccc2n1)c1ccc(N2CCCC2=O)cc1	109.5	101.0	·	-19.0
CSc1cccc(N2C(=O)C=CC2=O)c1	83.1	41.4	104.0	-8.3
COc1cc(-c2ncnn2-c2sc3c(c2C#N)CCCCC3)cc(OC)c1OC	104.4	89.5	104.7	·
CCOC(=O)c1c(N)nn(C(=O)C(C)C)c1-c1ccccc1	89.1	89.0	101.6	0.8
Cc1csc(NC(=O)c2cccc(S(=O)(=O)N(C)C)c2)n1	125.7	96.1	·	-17.1
COC(=O)c1ccc(-n2c(C)cc(C(=O)CN3C(=O)CN(C)C3=O)c2C)cc1	84.0	90.4	·	18.4
COC(=O)c1ccc2c(=O)n(CC(C)O)c(=S)[nH]c2c1 (stereo not drawn)	101.2	82.7	·	-11.0
Cc1ccccc1NC(=O)CSC1=Nc2ccccc2C2=NC(Cc3ccccc3)C(=O)N12 (stereo not drawn)	107.0	81.2	97.9	·
C=C(C)C1Cc2cc(/C=C/C(=O)O)c(O)cc2O1 (stereo not drawn)	0.5*	0.8*	102.3	-24.1
Cc1nsc(NC(=O)c2oc3ccc(F)cc3c2C)n1	·	·	103.3	-13.3
Cc1cc(NC(=O)C2Nc3ccccc3S(=O)(=O)N2)ccc1Br (stereo not drawn)	·	·	108.7	-25.0
CC(=O)OC(OC(C)=O)c1ccc(S(N)(=O)=O)cc1	103.5	89.5	99.7	4.1
CCOC(=O)N1CCN(S(=O)(=O)c2ccc(C(=O)Nc3nc4ccc5nc(SC)sc5c4s3)cc2)CC1	·	·	106.3	9.3
Cc1ccc(-c2noc3c(NC4CCCCC4)nc(C)nc23)cc1	·	·	107.3	-22.9
CCCCC(C)n1[nH]c(=O)c2c(C)cc(=O)[nH]c21 (stereo not drawn)	103.9	86.0	103.6	5.5

As entered above.
`Cc1ccc(NS(=O)(=O)c2ccc3c(c2)CCCN3C(=O)C2CCC2)c(C)c1` in Sa growth 42C has 91.0
`Cc1cc(NC(=O)C2Nc3ccccc3S(=O)(=O)N2)ccc1Br` (stereo not drawn) in GIV-Gai inh has 108.7

Continued.
SMILES	Sa growth 42C	Sa growth 42C second temp	GIV-Gai inh	HCMV NEC inh
O=C(c1cccc(Cl)c1)N1CCN(CCc2ccccn2)CC1	100.9	88.9	103.4	-18.4
Cc1ccc(C)c(CN2C(=O)c3ccccc3S(=O)c3ccc(C(=O)NCc4ccccc4)cc32)c1 (stereo not drawn)	104.5	93.2	99.2	-3.0
O=C(Cn1cnc2ccccc21)Nc1ccc2c(c1)OCCO2	92.2	81.3	·	-9.4
Cc1cccc(-n2ncc3c2ncn2nc(COc4ccc(Cl)cc4)nc32)c1	·	·	94.4	-13.5
CCCn1c(C)cc(/C=C(\C#N)C(=O)OCc2nc(N)nc(Nc3ccccc3C)n2)c1C	110.3	99.5	·	-2.4
Cc1c(-c2nnc(C(=O)NCc3ccc4c(c3)OCO4)o2)oc2ccccc12	·	·	103.4	-3.4

From PubChem
